# Screening results from PubChem BioAssay.
# UUG fidelity – modulators of yeast start codon fidelity, primary screen, whole organism, S. cerevisiae, single point, plate reader; activity score, % at 18.7 µM; actives 0.13% (n = 350,000); S. cerevisiae UUG-firefly luciferase reporter, luminescence/redox ratio; AID 602363, 2012;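 active = replicate mean at a twofold rise or more, about +100% in these data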;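 note: firefly luciferase made from a UUG start codon reports start codon fidelity; reporter light over untreated wells divided by growth signal over untreated wells; some hits fall short of that in this replicate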
# CSC inhib – cancer stem cell viability inhibitors, primary screen, luminescence | AID 2717, 2010 | inhibition, % at 7.5 µM | cancer stem cell-like cells viability | actives 1.1% (n = 300,000);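 active = mean at 75% or more and at least half the replicates too; inconclusive = mean and replicates disagree; tested in HMLE shEcad cells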;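 note: 0% = median of negative and 100% = median of positive control wells; the first replicate is given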
# MT1-MMP act inh – blockers of MT1-MMP proenzyme processing, primary screen, HT1080 RFP-PRO-GFP cells, GFP/RFP fluorescence; Matrix metalloproteinase-14 (Homo sapiens), P50281; GFP/RFP ratio fluorescence, overnight; percent of plate control window, DMSO zero; GFP/RFP ratio change, % at 20 µM; actives 0.061% (n = 360,000);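 active = GFP/RFP ratio change of at least 30% with cell ATP level not reduced by more than half and red fluorescence within 50% of control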; note: strong numbers were not always called active
#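 Assay system: HT1080 cells carrying an RFP-PRO-GFP reporter | Dosing: Single dose of 20 µM compound, 1% DMSO final | Incubation: Cells overnight before dosing, compound overnight, 37 °C, 5% CO2 | Evaluation: GFP/RFP fluorescence ratio | Control set: DMSO and RFP-L50D-GFP cell wells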
# Rce1 inhib – yeast Rce1p protease inhibitors, primary screen, biochemical, fluorescence, cell-free homogeneous. yeast membranes, quenched prenylated peptide cleavage fluorescence. calls only. actives 0.27% (n = 290,000). AID 2563, 2010;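 active = fall in fluorescence gain of 50% or more versus controls, with final raw signal at or below 3038400; inconclusive = same 50% fall but final raw signal above 3038400; inactive = fall in fluorescence gain under 50%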;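 note: plate controls were neutral control wells for no effect and wells lacking membranes for full effect; tested at 10 µM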
# Target sequence (Q03530 whole entry, looked up): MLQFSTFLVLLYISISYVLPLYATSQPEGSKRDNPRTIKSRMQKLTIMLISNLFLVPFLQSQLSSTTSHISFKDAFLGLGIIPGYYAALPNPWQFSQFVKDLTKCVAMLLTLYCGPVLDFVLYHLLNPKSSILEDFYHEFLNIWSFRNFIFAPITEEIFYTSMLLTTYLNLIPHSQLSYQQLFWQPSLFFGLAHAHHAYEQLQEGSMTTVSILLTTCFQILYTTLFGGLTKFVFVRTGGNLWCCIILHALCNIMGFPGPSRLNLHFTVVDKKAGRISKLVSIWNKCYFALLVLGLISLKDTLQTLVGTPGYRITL
# HIV Env fusion – inhibitors of HIV-1 Env-driven cell-cell fusion, primary screen, HeLa-JRFL effector, CEM21 target cells, luciferase. actives 1.1% (n = 360,000). inhibition, % at 12.3 µM;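 active = mean replicate inhibition score of at least 50 and every replicate individually at or above 50; inconclusive = only one of the two criteria met; inactive = mean below 50 and not all replicates reaching 50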;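 note: 0% = plate neutral controls and 100% = maraviroc near 300 nM; one replicate is shown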
# PABP FP inh – PABP poly(A) RNA binding inhibitors, primary screen, biochemical, fluorescence polarization, uHTS. Polyadenylate-binding protein 1 (Homo sapiens), P11940. inhibition, % at 35 µM. actives 1% (n = 290,000);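 active = 50% or more with normal probe brightness, or confirmed in later tests; inconclusive = above 50% with abnormal brightness, or retests that disagree; inactive = below 50% or failed in later tests; about a fifth of its hits are not listed in these tables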;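 note: calls also rest on retests at 20 µM and on dose response follow-up; controls were probe without protein and protein plus probe with vehicle; some compounds called inactive have numbers as strong as hits; many hits fall short of the cut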
# eIF4H FP inh – human eIF4H binding inhibitors, primary screen, translation initiation inhibitor project, biochemical, uHTS, fluorescence polarization. inhibition, % at 35 µM. Eukaryotic translation initiation factor 4H (Homo sapiens), Q15056. actives 0.94% (n = 290,000). eIF4H fluorescence polarization binding assay;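 active = 50% or more with normal probe brightness, or confirmed in later tests; inconclusive = above 50% with abnormal brightness, or retests that disagree; inactive = below 50% or failed in later tests; about a fifth of its hits are not listed in these tables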;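 note: calls also rest on retests at 20 µM and on dose response follow-up; 0% = protein and probe with vehicle and 100% = probe without protein; strong numbers were not always called active; many hits fall short of the cut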
# eIF4H FP inh retest – further read-out of eIF4H FP inh, marked with its call; inhibition, %; compound at 20 µM; confirmation average;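 mean of two retest wells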
# PABP FP inh retest – further read-out of PABP FP inh, marked with its call; inhibition, %; compound at 20 µM; confirmation repeats;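 mean of two retest wells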
# MT1-MMP act inh RFP – also measured in MT1-MMP act inh; calls as there; RFP signal change, %; measured here: RFP expression control read;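 0 = vehicle wells; hits needed this value within 50% of zero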
# * = called active by the depositor; i = inactive; ? = inconclusive; . = not tested or not shown.
SMILES,UUG fidelity,CSC inhib,MT1-MMP act inh,MT1-MMP act inh RFP,Rce1 inhib,HIV Env fusion,PABP FP inh,eIF4H FP inh,others
O=C(Cn1cc2c(n1)CCCCC2)NC1CCCCCC1,-11,-2,17,2,i,-13,-13,-3,
FC(F)(F)c1ccc(N2CCOCC2)c(NC2=NCCCCC2)c1,-9,-13,-4,-1,i,-9,12,3,
CN=C(Nc1cc(C)nn1-c1ccccc1)c1ccc(F)cc1,-28,20,0,5,i,.,3,-4,
COc1ccc(CCNC(=O)C(=O)NCC2OCCN2S(=O)(=O)c2ccc(Br)cc2)cc1OC (stereo unspecified),2,19,-6,-6,i,21,0,-3,
CC[C@]12c3[nH]c4cc(CCC(=O)N(C)C)ccc4c3CCN1C(=O)[C@@H](CC(=O)NCCCN(C)C)C[C@@H]2C(=O)N1CCN(C(=O)c2ccco2)CC1,-6,.,7,6,.,-12,.,.,
Cc1cc(C(=O)OCC(=O)NC(=O)c2cccn2C)c2ccccc2n1,.,-11,-2,1,.,-2,24,2,
COc1ccc(N2CCN(C(c3nnnn3CCc3ccccc3)C(C)C)CC2)cc1 (stereo unspecified),6,2,-4,-3,i,41,2,10,
CC(Oc1cccc(Cl)c1)C(=O)NCCCCc1ccccc1 (stereo unspecified),.,-8,-3,1,i,-9,12,-2,
Cc1ccc(CNC(=O)c2ccc(C#CC(C)(C)O)s2)cc1,21,2,1,-1,i,-26,14,4,
Cc1ccc(Nc2nc(NCCO)nc(N3CCCC3)n2)cc1,-4,5,-1,-7,i,-10,.,.,
COc1cc(C)nc(N2CCC(C(N)=O)CC2)n1,-24,-3,0,8,i,-3,-11,-7,
CC(=O)c1cccc(NC(=S)N2CCN(S(C)(=O)=O)CC2)c1,-17,0,2,4,i,.,-3,-6,
O=C(Nn1cnc2ccccc2c1=O)c1ccccc1F,-1,15,1,1,i,-13,1,-5,
COc1cccc(C(O)c2nc(-c3ccc4ccccc4c3)cs2)c1 (stereo unspecified),-6,.,3,-2,.,-16,.,.,
Cc1ccc(CNC(=O)CSc2nnnn2C)cc1,-2,-15,1,5,i,5,-2,-4,
Cc1cc(C(=O)CSc2nc(N)cc(=O)[nH]2)c(C)n1CCc1ccc(Cl)cc1,.,-4,-11,-18,i,.,-4,-4,
CN(C)c1ccc(C(=O)OCC(=O)Nc2ccc(S(N)(=O)=O)cc2)cc1,-10,-10,-8,-7,i,.,6,4,
Cc1ccc2c(c1)Oc1ccc(NC(=O)CCCl)cc1C(=O)N2,-6,92*,0,-5,i,9,-1,4,
CCC(CC)C(=O)Nc1nnc(-c2cccs2)s1,-6,2,-2,-4,i,-16,-6,-8,
CC(=O)c1ccc(OC(C)C)c(CN2CCCCC2)c1,1,-20,5,3,i,.,-10,-2,
O=C(COC(=O)C1CCN(S(=O)(=O)c2cccs2)CC1)NCc1ccccc1,4,9,-1,1,i,4,-5,14,
O=C(Nc1ccccc1N1CCCC1)c1cccc(Cl)c1Cl,.,4,-4,0,i,13,-8,-3,
CN1CCN(C(=O)C(Cc2ccccc2)NS(=O)(=O)c2ccc3c(c2)CCC(=O)N3)CC1 (stereo unspecified),1,.,-1,6,.,-10,5,0,
Cc1ccc(C(=O)c2cc([N+](=O)[O-])ccc2N2CCCCC2)cc1,.,56,7,-6,i,-35,3,-7,
COc1ccc(NC(=O)c2ccc3c(c2)NC(=O)CO3)cc1OC,-18,-12,0,-1,.,7,8,-5,
SMILES,UUG fidelity,CSC inhib,MT1-MMP act inh,MT1-MMP act inh RFP,Rce1 inhib,HIV Env fusion,PABP FP inh,eIF4H FP inh,others
COc1ccc(-c2cc(C(=O)N3CCN(C(c4ccccc4)c4ccccc4)CC3)no2)cc1OC,-10,21,-22,-17,i,-17,-8,-6,
O=C(CSc1nc2ccccc2s1)N/N=C/c1ccccc1C(=O)O,-12,4,4,7,i,-50,13,-3,
CCCCCCCOC1(c2ccccc2)OC(=O)c2ccccc21 (stereo unspecified),-11,13,-2,-5,i,20,-10,2,
Cc1ccc(C(=O)OC2OC(=O)C(Cl)=C2N2CCOCC2)cc1 (stereo unspecified),.,0,-1,1,i,-33,?,-17,
Cc1ccc(C)c(OCC(=O)Nc2cc(NC(=O)COc3cc(C)ccc3C)cc(C(=O)O)c2)c1,0,-9,7,4,i,-4,26,39,
O=C1C2C3c4ccccc4C(c4ccccc43)C2C(=O)N1c1ccncc1 (stereo unspecified),-24,.,2,-2,i,14,-1,5,
CC(=O)Nc1ccc(S(=O)(=O)NCc2cccnc2)cc1,.,-14,3,-2,i,-40,16,0,
COCC(=O)Nc1ccc(Br)cc1,-39,-13,0,5,i,.,9,1,
O=C(O)CC(c1cccc2ccccc12)N1Cc2ccccc2C1=O (stereo unspecified),-7,-6,-4,3,i,20,-12,0,
COc1ccc(C(C)(O)c2nc(-c3cccc(NC(C)=O)c3)cs2)cc1 (stereo unspecified),-2,.,0,0,.,-5,.,.,
CC(=O)Nc1cccc(NC(=O)c2c(-c3c(Cl)cccc3Cl)noc2C)c1,-7,-1,6,1,.,.,6,-13,
Cn1cnnc1SCC(=O)N1CCc2ccccc21,-18,2,-4,-1,i,15,-4,-4,
Cc1ccc(C(=O)OCC(=O)NCc2ccc(Cl)cc2)s1,-16,.,-1,1,.,11,.,.,
COc1ccc(/C=N/n2c(-c3n[nH]c4c3CCC4)n[nH]c2=S)cc1OC,.,-19,0,-3,i,9,-10,-8,
COc1ccc(Cc2nc3ccccc3[nH]2)cc1OC,.,.,-1,-7,i,13,-5,-8,
O=C(OC1CCOC1=O)c1ccc2ccccc2n1 (stereo unspecified),-11,0,2,2,i,.,1,-2,
COc1ccc(Cl)cc1NC(=O)CN(C)C1CCS(=O)(=O)C1 (stereo unspecified),-21,.,1,-2,.,9,.,.,
O=S(=O)(c1ccc(Cl)cc1)N1CCN(C2CCCCCC2)CC1,3,37,-1,-4,i,.,-7,9,
CC12CCC(C(=O)N(CCCCN3CCN(Cc4ccccc4)CC3)C1=O)C2(C)C (stereo unspecified),6,33,0,2,i,2,45,62,eIF4H FP inh retest=29;PABP FP inh retest=5
Cc1c(OCC(=O)N2CCC(C(N)=O)CC2)ccc2c3c(c(=O)oc12)CCC3,-16,-4,-4,-2,i,.,5,-9,
CCOc1cc(NS(=O)(=O)c2ccc(NC(C)=O)cc2)c(OCC)cc1NC(=O)c1cccs1,.,-15,3,-1,i,7,0,-6,
Cn1c(CNC(=O)CCNC(=O)c2ccc(Br)cc2)cc(=O)n(C)c1=O,-20,-7,3,7,i,4,-4,-6,
COc1cc(OC)cc(-c2c(-c3cccs3)c3cc(Br)ccc3n2C)c1,-17,46,-4,0,.,14,.,.,
O=C(NC(=S)Nc1ccc(Cl)c(C(=O)O)c1)c1ccco1,-3,-20,-1,4,i,-5,4,-4,
CCS(=O)(=O)N1CCC(NC(C)=O)(c2ccccc2)CC1,-16,-8,-1,7,i,2,9,-1,

# Ordered by molar mass (largest number first): some entries from above.
SMILES,UUG fidelity,CSC inhib,MT1-MMP act inh,MT1-MMP act inh RFP,Rce1 inhib,HIV Env fusion,PABP FP inh,eIF4H FP inh,others
CCOc1cc(NS(=O)(=O)c2ccc(NC(C)=O)cc2)c(OCC)cc1NC(=O)c1cccs1,.,-15,3,-1,i,7,0,-6,
CC(=O)Nc1cccc(NC(=O)c2c(-c3c(Cl)cccc3Cl)noc2C)c1,-7,-1,6,1,.,.,6,-13,
O=C1C2C3c4ccccc4C(c4ccccc43)C2C(=O)N1c1ccncc1 (stereo unspecified),-24,.,2,-2,i,14,-1,5,

# Other entries.
SMILES,UUG fidelity,CSC inhib,MT1-MMP act inh,MT1-MMP act inh RFP,Rce1 inhib,HIV Env fusion,PABP FP inh,eIF4H FP inh,others
Cc1ccc(C(CNS(=O)(=O)c2cc(F)ccc2F)N2CCN(C)CC2)cc1 (stereo unspecified),12,.,1,2,i,-17,.,.,
Cc1cc(C)cc(Oc2nc3ccccn3c(=O)c2/C=C(\C#N)C(=O)NC2CCS(=O)(=O)C2)c1 (stereo unspecified),5,18,0,4,i,3,-4,5,
N#C/C(=C\c1ccccc1OCc1ccc(C(=O)O)cc1)c1ccccc1,-7,-10,8,-3,i,13,33,5,
Cc1cc(C)n(CCNC(=O)C2CCC(=O)N(CCc3cccc(F)c3)C2)n1 (stereo unspecified),-22,-2,-4,-3,i,4,-16,2,
Cc1cccc(NC(=S)NC(=O)C2CC2)c1,-17,-1,-7,4,.,.,-2,3,
COc1ccc(C(C(=O)NC2CCCCC2)N(C(=O)c2sc(C)nc2C)c2ccc(OC)cc2)cc1 (stereo unspecified),-10,-9,7,-1,i,.,-15,-3,
Cc1ccc(S(=O)(=O)Nc2ccc(NC(=O)Nc3ccc(F)cc3F)cc2)cc1,7,22,-18,-4,i,-116,-5,4,
O=C(NCc1cccnc1)C1Cc2c(-c3ccc(Cl)cc3)ccnc2O1 (stereo unspecified),-18,.,-6,-14,.,-10,.,.,
O=C(CS(=O)(=O)Cc1ccccc1)Nc1ccc(S(=O)(=O)N2CCCCCC2)cc1,15,8,-1,-4,i,.,-15,4,
Cc1cccc(NC(=O)c2oc3ccc(S(=O)(=O)N4CCOCC4)cc3c2C)c1C,-1,-3,-3,-7,i,28,6,-15,
Cc1ccc(CN2CCC(N3CC(C)OC(C)C3)CC2)cc1 (stereo unspecified),-35,1,1,4,i,6,18,12,
Cc1ccccc1-n1cnc2cc(NCc3cccs3)ccc21,-21,30,17,-6,i,-86,-6,-3,
Cc1nonc1NC(=O)N1CCCC1,1,16,0,4,i,-70,-6,0,
COc1ccc(OC)c(C(c2nnnn2CCC(C)C)N2CCN(C(=O)c3ccco3)CC2)c1 (stereo unspecified),14,.,-4,-5,i,-12,20,-8,
O=C(CSc1nnc(C23CC4CC(CC(C4)C2)C3)o1)Nc1ccc(N2CCOCC2)c(Cl)c1,-10,2,-2,-1,i,-34,-10,5,
COC(C/C=C\[C@@H](O)[C@H](C)OCc1ccccc1)OC,-14,-9,4,4,i,-4,.,.,
O=S(=O)(NCCN1CCOCC1)c1ccc2c(c1)OCCO2,.,-9,7,3,i,-8,-11,-3,
CC(=O)Nc1ccc(N2CCN(c3ccc(F)cc3)CC2)cc1,-17,-13,2,-1,i,-3,-7,-3,
CC1C(=O)N2CCCc3cc(S(=O)(=O)N4CCC(C(N)=O)CC4)cc1c32 (stereo unspecified),-7,0,0,3,i,-5,13,0,
Cc1cc(Cl)ccc1C(=O)C1CCCN(C(=O)c2cccnc2C)C1 (stereo unspecified),1,-3,2,-1,i,5,2,-9,
CNC(=O)C1Cc2c(-c3ccc(Cl)cc3)ccnc2O1 (stereo unspecified),-11,.,-1,4,.,2,.,.,
COc1cccc(OC(=O)CSc2nnc(-c3ccccc3Br)o2)c1,1,3,1,1,i,8,-10,-14,
O=C(NCNC(=O)c1ccccc1)c1ccccc1,.,-2,8,5,i,-8,-9,-3,
CC(=O)c1cc2c(cc1NC(=O)c1ccccc1C)OCO2,.,-7,.,.,i,.,-4,-1,

# This is a random part of the collection; overall some 2.9% were active at least once.
